PrP UTR inh = inhibition of PrP 5' UTR reporter expression; cell-based PrP 5' UTR mRNA reporter, plate reader; inhibition, % (concentration not given with the values); 340,000 compounds, 0.35% hits;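 active means every replicate at 50% or more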;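 further: 0 = median of the neutral control wells; tested in H4 reporter cells; numbers are from one replicate; inactives centre near -14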
Bead autofluor = counter-screen for toxin protease inhibitors: compound fluorescence | compound autofluorescence counterscreen, microsphere flow cytometry; hits give high values | 360,000 compounds, 3.1% hits | fluorescence intensity (concentration not given with the values);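 active means at least 3 SD above the mean of all compounds, about 16000 in these data; inconclusive means too few beads counted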;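 further: 100 nL of 1 mM stock went into each well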
BJeLR viability = BJeLR cell viability loss. BJeLR (HRASV12) viability, CellTiter-Glo ATP luminescence, 48 h; reference of the scale not given here. inhibition, % (no concentration beside the values). 300,000 compounds, 0.17% hits. AID 1554;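 active means replicate mean above 50%; inconclusive means above 50% but judged a plate artefact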;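 further: 50 nL library stock added to about 25 µL; numbers are from one replicate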
Sa ugtP lethal = growth inhibition of S. aureus ugtP deletion strain; S. aureus RN4220 ugtP deletion, OD600 growth, 16 h; some inactives read as strong as hits; 330,000 compounds, 0.54% hits; growth inhibition, % (concentration not given with the values); AID 1259309;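 active means z-score under -3 and OD600 up to 0.15 on both plates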;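 further: plate controls were untreated wells for no effect and antibiotic for full effect; wells of about 80 µL received 100 nL stock; the first replicate is given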
Sa RN4220 lethal = S. aureus RN4220 growth inhibition. OD600, 16 h. 330,000 compounds, 0.33% hits. inhibition, % (no concentration beside the values);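 active means z-score of -3 or lower and OD600 up to 0.18 on both plates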;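 further: plate controls were untreated cells for no effect and reference antibiotic for full effect; stock transfer was 100 nL into about 80 µL; one replicate is shown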
Mtb hypoxia rep = inhibitors of hypoxia-regulated fluorescent reporter in Mycobacterium tuberculosis. 300,000 compounds, 0.1% hits. fluorescence inhibition, % (test concentration not listed). M. tuberculosis hypoxia-regulated fluorescent reporter, fluorescence;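 active means 35 to 45% if threefold the growth effect, above 45% if 1.5-fold the growth effect; inactive means the rest, general growth blockers included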;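 further: wells of about 50 µL received 100 nL stock; 0% = vehicle wells and 100% = reference inhibitor wells; whole bacteria with a GFP reporter of the hypoxia response; strong numbers were not always called active; many hits fall short of the cut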
Mtb hypoxia rep growth = second read-out of Mtb hypoxia rep, no call of its own (marks repeat the call); growth inhibition, %; measured here: M. tuberculosis growth (absorbance);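 0% = vehicle and 100% = reference antibiotic; read after six days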
* hit, by the source's call; ? = inconclusive; . = no result given; & = joins results of further samples.

Values run as follows: PrP UTR inh, Bead autofluor, BJeLR viability, Sa ugtP lethal, Sa RN4220 lethal, Mtb hypoxia rep, Mtb hypoxia rep growth
> CC(C)c1ccc(N(CC(=O)NCCSC(C)(C)C)S(C)(=O)=O)cc1
    -21, ?, 1, 2, 6.3, 10, 2
> CCCNC(=O)N1CCN(c2nc(C(C)C)c3c(c2C#N)CC(C)(C)OC3)CC1
    -2, 5242, 5, 13, 5.9, 7, 7
> Cc1cccnc1-n1c(-c2ccccc2)nc2ccccc2c1=O
    -17, 9118, 7, -5, 2.8, 9, 1
> O=C(COC(=O)C1CC(=O)N(Cc2ccco2)C1)Nc1ccccc1[N+](=O)[O-] (stereo unspecified)
    -13, ?, ., 12, 5.0, 14, 1
> O=C(Nc1cc2c(cc1Br)OCCO2)c1ccco1
    -41, 6152, -10, 1, 2.6, 5, -15
> COc1ccccc1N(Cc1cc2cccc(C)c2[nH]c1=O)C(=O)C(C)C
    0, 2196, 1, -7, 4.0, 10, 9
> CCOC(=O)N1CCN(C2CC(=O)N(c3ccc(Cl)c(Cl)c3)C2=O)CC1 (stereo unspecified)
    -31, 4307, ., -6, 0.1, ., .
> CCOc1ccc(S(=O)(=O)N2CCCC(C(=O)N3CCCC3)C2)cc1 (stereo unspecified)
    -5, 4521, 1, 4, 2.8, 4, 12
> Nc1cc(=O)[nH]c(SCC(=O)Nc2cc(Cl)ccc2Cl)n1
    -7, 3718, -7, 4, 3.4, 3, -7
> COc1cccc(-c2nc(CS(=O)CC(=O)O)c(C)o2)c1 (stereo unspecified)
    -38, 4478, 7, 10, 4.9, 6, 5
> CCOC(=O)c1nnc2ccnn2c1N
    -17, 12701, -6, 3, 5.6, 4, -8
> CCCCC(CC)C(=O)O (stereo unspecified)
    -15, 4122, ., 5, 0.1, ., .
> COc1cc(OC)cc(C(=O)N[C@H](C(=O)OCC(=O)NC(C)c2ccccc2)C(C)C)c1 (stereo partly specified)
    -2, 1991, -3, 4, 3.4, 9, 7
> CCOC(=O)COc1c(Cl)cc(C2NC(=S)NC(c3ccccc3)=C2C(C)=O)cc1OCC (stereo unspecified)
    -16, 1979, -9, 7, 6.1, 0, -3
> CCN1CCN(c2ccc([N+](=O)[O-])cc2C(=O)OC)CC1
    13, 3437, 2, 5, 4.6, 1, 9
> CC[N+](CC)(CC)CC(=O)Nc1c(C)cccc1C
    -26, 5178, 5, -2, 4.7, -7, -4
> CC(=NNC(=O)Cc1ccccc1)c1cccs1
    ., ., ., 3, -0.1, 5, 7
> CC(C)NC(=O)C(=O)NCCN1CCN(C(=O)c2ccc(C(C)(C)C)cc2)CC1
    -26, 4412, 5, 7, 6.9, 19, 5
> COC(=O)c1ccc(COn2nnc3ccccc32)cc1
    -56, 4272, 11, 7, 7.6, 11, 9
> CCOC(=O)c1c(-c2ccco2)csc1NC(=O)COC(=O)c1cnccn1
    -6, 5146, 0, 10, 7.9, 1, -5
> Cc1cccc(N2C(=O)c3ccc(C(=O)Nc4cccc(C(=O)O)c4)cc3C2=O)c1
    -15, 3198, -2, 4, 2.1, 6, 6
> O=C(CCCOc1ccccc1)N1CCN(S(=O)(=O)c2cccc(F)c2)CC1
    -6, ?, -5, 1, 2.6, 2, 0
> COc1ccccc1Nc1ccc(Nc2ccccc2OC)nn1
    -36, 2423, -4, -7, 4.1, 3, 2
> CCOC(=O)N1CCN(C(=O)CCN2C(=O)c3ccccc3S2(=O)=O)CC1
    -20, ., 0, 5, 1.3, 4, -6
> CC(Nc1ccc(Cl)cc1)C(=O)NN (stereo unspecified)
    -24, 3443, 1, 0, 4.3, 15, -6
> CCn1c(COc2cccc(C)c2)nc2ccccc21
    -18, 2256, -3, 3, -1.5, 11, 5
> Cc1cccc(OCc2n[nH]c(=S)n2-c2ccccc2)c1
    -15, 2716, -2, 3, 2.2, 17, 5
> COc1ccc2nc(-c3ccccc3)nc(SCC(=O)NCC3CCCO3)c2c1 (stereo unspecified)
    -11, 6063, -8, -5, 0.8, 13, 3
> Cc1ccc(/C=N/NC(=O)C(c2ccncc2)N2CCOCC2)cc1 (stereo unspecified)
    -4, 4351, 5, ., ., ., .
> CC(C)C1=NOC(C(=O)N2CCC(N3CCC(C(=O)N4CCOCC4)CC3)CC2)C1 (stereo unspecified)
    -5, 3226, 5, 7, 13, 10, -4
> O=C(Cc1ccccc1)NCCn1ccc2ccccc21
    -7, 6292, 13, 3, -9.8, 12, 5
> Cc1cccc(-n2ncc3c(NCc4ccco4)ncnc32)c1
    -80, 2445, 10, 0, -1.9, ., .
> COCCCNC(=O)Cn1nnc(-c2ccccc2NC(=O)c2ccc(F)cc2)n1
    -9, 8682, -1, -4, -1.0, -10, -2
> COc1ccc(Cl)cc1C(=O)OCC(=O)N1CCCC(C)C1 (stereo unspecified)
    -24, 3664, ., 1, 2.8, 10, 13
> Fc1ccc(NC(=S)NCCN2CCOCC2)cc1
    7, 4558, 9, 3, -2.6, 0, 0
> O=C(N/N=C/c1ccccc1OCC(=O)N1CCCC1)C(=O)Nc1ccccc1F
    -18, 9435, -7, ., ., ., .
> COc1ccc(CC2(CO)CCN(C/C=C/c3ccccc3OC)CC2)cc1
    -10, 3654, ., -5, 1.0, 0, 5
> Cc1cc(-c2nc(C)c(C(=O)NNS(=O)(=O)c3cccc(C(F)(F)F)c3)s2)no1
    ., 3771, -15, 3, 4.6, 0, 2
> COc1ccc(-c2[nH]ncc2CN(C)C(C)c2ccncn2)c(F)c1 (stereo unspecified)
    -33, 4397, 3, 4, 5.8, 12, 6
> COc1cccc(-n2c(C)nc3cc(C(=O)O)ccc32)c1
    -13, 4598, 3, 1, 2.3, 7, 12
> COc1cc(O)c(C(=O)/C=C/c2ccccc2)c(OC)c1
    -11, 5665, -16, 11, 2.2, ., .
> COc1cc(NC(=O)c2ccc(N)nc2)cc(C(=O)Nc2cccc(C(F)(F)F)c2)c1
    -17, 3850&4101, 5, 4, 6.4, 0, -6
> COc1ccc(OC)c(/C=N/N=C2\SCC(=O)N2Cc2ccco2)c1
    -10, 2039, 4, ., ., ., .
> CCC(CO)Nc1nc2ccc(Cl)cc2c2ccccc12 (stereo unspecified)
    -18, 4213, -5, -1, -17, -4, -7
> NC(=O)c1cc2ccccc2o/c1=N/NC(=O)c1cccs1
    -46, 4221, -3, ., ., ., .
> O=C(COc1ccc(F)cc1Br)N1CCN(S(=O)(=O)/C=C/c2ccccc2)CC1
    -17, 4122, -1, -64, 7.0, 9, 9
> Cc1ccc(OCCC(=O)OCC(=O)NC(=O)c2ccccc2)cc1
    -20, 5609, -14, -1, -1.6, -6, -1
> O=C(C1CCCC1)N(c1ccccc1)C1C=CS(=O)(=O)C1 (stereo unspecified)
    -1, 12580, 0, 1, 3.1, 7, 10
> Cc1cc2cc3c(cc2nc1SCC(=O)Nc1ccccc1)CCC3
    -20, 8515, 1, -2, 4.9, 6, -4
> O=[N+]([O-])c1c(Nc2ccccc2O)ccc2nonc12
    -8, 4315, -12, -1, 8.2, 20, 18
> COc1ccccc1N1CCN(CCc2ccccc2)CC1
    -14, 4219, 10, 9, 2.7, -1, -1
> O=C(NCCO)c1cc2ccccc2cc1O
    ., 11073, 2, 24, 6.5, 3, 2
> COc1ccccc1CNS(=O)(=O)c1ccc(-n2cnnn2)c(C)c1
    -7, 3499, -4, 4, 2.5, -8, -21
> O=C(Nc1ccccc1)[C@@H]1CC=C[C@@H]2CCN(Cc3ccc(Cl)c(Cl)c3)C(=O)[C@@H]21
    -2, 3996, 6, ., ., ., .
> COc1ccccc1NS(=O)(=O)c1cc(NC(=O)Nc2ccccc2)ccc1N1CCCCC1
    -40, 12114, ., -13, -4.7, -5, 1
> O=C(NC(=S)N1CCCCC1c1cccnc1)c1ccc(F)cc1 (stereo unspecified)
    -3, 5298, 3, 3, 2.6, 13, 4
> Cc1ccc(C(=O)Nc2ccccc2Cl)cc1
    -88, 3202, -1, 4, 5.5, -5, 2
> O=[N+]([O-])c1cc2c(cc1C=NNS(=O)(=O)c1ccc(Br)cc1)OCO2
    ., ., ., 4, 28, -2, 5
> O=C(O)c1ccc(C(=O)c2ccc3c(c2)C(=O)N(CC2CCCO2)C3=O)cc1 (stereo unspecified)
    -33, 2536, -1, 0, 2.9, 13, 3
> Cc1sc2ncnc(Sc3ccccc3C(=O)Nc3ccc(C#N)cc3)c2c1C
    -17, 2316, -4, -2, 6.2, 11, 11

More structures:
Values run as follows: PrP UTR inh, Bead autofluor, BJeLR viability, Sa ugtP lethal, Sa RN4220 lethal, Mtb hypoxia rep, Mtb hypoxia rep growth
> CCS(=O)(=O)N1CCC(N2CCN(c3ccccc3)CC2)CC1
    -5, 3674, 0, 9, 3.9, 8, 2
> [N-]=[N+]=CC(=O)CC(c1ccccc1)N1C(=O)c2ccccc2C1=O (stereo unspecified)
    -8, ., 0, 0, -3.3, ., .
> COc1ccc(CCC(=O)NCc2cn3ccsc3n2)cc1
    -12, 8131, 3, 0, 3.2, 5, 5
> COC(=O)c1ccccc1Oc1ccc(NC(=O)CCCl)cc1
    -10, 5168, -2, -1, -3.5, -9, 10
> CC(c1ccco1)N(C(=O)C12CC3(C)CC(C)(CC(C)(C3)C1)C2)c1ccccn1 (stereo unspecified)
    1, 3405, -6, 1, 27, 3, 0
> CCC(=O)Nc1ccc2c(c1)nc(CCN1CCCCC1)n2C
    -20, 3878, -1, 0, -1.5, -5, -1
> COCCn1c(SCC(=O)NNC(=O)Cc2ccccc2)nc2ccccc2c1=O
    -17, 3377, 3, 8, 2.8, -3, 2
> COc1ccc(NC(=S)/N=C(\N)Nc2nc(C)c3ccccc3n2)cc1
    -3, 4778, 11, -3, 8.9, 5, 2
> Cc1nnc(SCC(=O)NNC(=O)C(C)C)[nH]c1=O
    -8, 2120, -8, 14, 4.6, 10, 4

Among those listed so far, nine contain a Cl atom.
Values run as follows: PrP UTR inh, Bead autofluor, BJeLR viability, Sa ugtP lethal, Sa RN4220 lethal, Mtb hypoxia rep, Mtb hypoxia rep growth
> CCOC(=O)N1CCN(C2CC(=O)N(c3ccc(Cl)c(Cl)c3)C2=O)CC1 (stereo unspecified)
    -31, 4307, ., -6, 0.1, ., .
> Nc1cc(=O)[nH]c(SCC(=O)Nc2cc(Cl)ccc2Cl)n1
    -7, 3718, -7, 4, 3.4, 3, -7
> CCOC(=O)COc1c(Cl)cc(C2NC(=S)NC(c3ccccc3)=C2C(C)=O)cc1OCC (stereo unspecified)
    -16, 1979, -9, 7, 6.1, 0, -3
> CC(Nc1ccc(Cl)cc1)C(=O)NN (stereo unspecified)
    -24, 3443, 1, 0, 4.3, 15, -6
> COc1ccc(Cl)cc1C(=O)OCC(=O)N1CCCC(C)C1 (stereo unspecified)
    -24, 3664, ., 1, 2.8, 10, 13
> CCC(CO)Nc1nc2ccc(Cl)cc2c2ccccc12 (stereo unspecified)
    -18, 4213, -5, -1, -17, -4, -7
> O=C(Nc1ccccc1)[C@@H]1CC=C[C@@H]2CCN(Cc3ccc(Cl)c(Cl)c3)C(=O)[C@@H]21
    -2, 3996, 6, ., ., ., .
> Cc1ccc(C(=O)Nc2ccccc2Cl)cc1
    -88, 3202, -1, 4, 5.5, -5, 2
> COC(=O)c1ccccc1Oc1ccc(NC(=O)CCCl)cc1
    -10, 5168, -2, -1, -3.5, -9, 10

Individual results from the entries so far:
Sa ugtP lethal, `O=C(Nc1cc2c(cc1Br)OCCO2)c1ccco1` is entered as 1
Sa ugtP lethal, `O=[N+]([O-])c1cc2c(cc1C=NNS(=O)(=O)c1ccc(Br)cc1)OCO2` is entered as 4
